total CFTR: total CFTR protein upregulators, primary screen, cell-based, HeLa F508del-CFTR, immunofluorescence, viability (AID 1224863). Cystic fibrosis transmembrane conductance regulator (Homo sapiens). HeLa F508del-CFTR, immunofluorescence total CFTR, 24 h; by the record results were divided by relative cell number; some inactives read as strong as hits. calls, or highest fold increase where a dose series was run. 10,000 tested, 0.1% active; in the data nearly all actives have a first-pass fold increase above 1.5; a few of its hits are not listed in these tables;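 note: total CFTR protein by anti-CFTR immunofluorescence in fixed cells; first pass at 25 µM or 10 µg/mL by library and series up to twice that; 1 = untreated cells; first-pass hits also needed half or more of the cells alive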
total CFTR fold 25 µM: further read-out of total CFTR, marked with its call; fold increase; measured here: primary screen single dose 25 uM; library dosed in µM
total CFTR fold 10 ug/mL: also measured in total CFTR; calls as there; fold increase; measured here: primary screen 10 ug/mL
total CFTR viability 25 µM: also measured in total CFTR; calls as there; viability, %; measured here: primary viability 25 uM; library dosed in µM;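 0% = killed and 100% = untreated cells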
total CFTR viability 10 ug/mL: further read-out of total CFTR, marked with its call; viability, %; measured here: primary viability 10 ug/mL;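 0% = killed and 100% = untreated cells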
* = called active by the depositor; i = inactive; · = no result given; & = joins results of further samples. The list is partial (hit frequency here may not be typical).

SMILES	total CFTR	total CFTR fold 10 ug/mL	total CFTR viability 10 ug/mL	others
COCCOc1ccc(S(=O)(=O)N2CCn3c2nc2ccccc23)cc1	i	0.97	76
Cn1cc(C(=O)NC2CCN(C(=O)Nc3nnc(C4CC4)s3)CC2)cn1	1.4	1.7	90
Cc1cc(C)n2nc(SCc3ccc(CSc4nc5nc(C)cc(C)n5n4)cc3)nc2n1	i	1.1	115
Clc1ccc(COn2nnc3ccc(Cl)cc32)cc1	i	0.83	100
CC(=O)NC1(C(=O)O)CCC(C)CC1 (stereo not drawn)	i	0.93	82
COCCn1c(C)cc(C(=O)CSc2nnc(-c3ccco3)n2C)c1C	i	1	89
Cc1ccc(-c2noc(CCCSc3nnnn3C3CC3)n2)cc1F	i	0.92	97
C=CCn1c(SCc2cc([N+](=O)[O-])cc3c2OCOC3)nc2sc3c(c2c1=O)CCCC3	i	1	76
NCC(O)C(F)(F)F (stereo not drawn)	i	0.87	79
CCOC(=O)C1CCCN(S(=O)(=O)N2CCC(c3nc4cc(Cl)ccc4o3)CC2)C1 (stereo not drawn)	i	0.9	102

Of the compounds above, 2 have fluorine:
SMILES	total CFTR	total CFTR fold 10 ug/mL	total CFTR viability 10 ug/mL	others
Cc1ccc(-c2noc(CCCSc3nnnn3C3CC3)n2)cc1F	i	0.92	97
NCC(O)C(F)(F)F (stereo not drawn)	i	0.87	79

More results follow.
SMILES	total CFTR	total CFTR fold 10 ug/mL	total CFTR viability 10 ug/mL	others
Cc1cc(NC(=O)N2CCN(C(=O)OC(C)(C)C)CC2)no1	i	1.1	102
CC(C)C(C)NC(=O)COC(=O)c1cc2c(s1)CCC2 (stereo not drawn)	i	0.91	108
NC(=O)CCC(NC(=O)C1CC1)C(N)=O (stereo not drawn)	i	0.97	87
O=C1C2CC=CCC2C(=O)N1CN1CCC(c2nc3ccccc3s2)CC1 (stereo not drawn)	i	1	86
N#Cc1cccnc1NCCO	i	1	98
CC(=O)c1c(C)[nH]c(C(=O)C(C)Sc2nc(C)c(C)c(C)n2)c1C (stereo not drawn)	i	0.86	79
CC(=O)OCC(=O)[C@@]1(O)CCC2C3CCC4=CC(=O)CC[C@]4(C)[C@@]3(F)[C@@H](O)C[C@@]21C (stereo partly drawn)	i	·	·	total CFTR fold 25 µM=1.1;total CFTR viability 25 µM=89
Cc1ccsc1CN(C)S(=O)(=O)c1cn(C)c(=O)n(C)c1=O	i	1.1	82
CCOC(=O)c1c(C)[nH]c(C(=O)C(C)Sc2nnnn2C2CC2)c1C (stereo not drawn)	i	0.94	95
O=C(CN1C(=O)CSc2ccccc21)Nc1cc2c(cc1Cl)OCO2	i	1.1	97
O=C(N1CCN(S(=O)(=O)c2ccccc2)CC1)C12CC3CC(CC(O)(C3)C1)C2	i	0.88	98
O=S(=O)(c1cccc2nsnc12)N1CCN(c2cccc(C(F)(F)F)c2)CC1	i	1	96
CC(=O)OCC(=O)[C@@]12OC(C)(C)O[C@@H]1CC1C3C[C@H](F)C4=CC(=O)C=C[C@]4(C)[C@@]3(F)[C@@H](O)C[C@@]12C (stereo partly drawn)	i	·	·	total CFTR fold 25 µM=1.2;total CFTR viability 25 µM=112
CCc1nnc(COC(=O)c2c(C)noc2N)o1	i	1	102
O=S(=O)(c1ccc(Oc2nccc(C(F)(F)F)n2)cc1)N1CCOCC1	i	0.9	83
Cn1nnnc1SCC(=O)N1CCc2sccc2C1	i	0.94	96
O=C1NC2(CCSC2)C(=O)N1Cc1ccccc1Cl (stereo not drawn)	i	0.93	91
COc1ccccc1O	i	·	·	total CFTR fold 25 µM=1&1.1;total CFTR viability 25 µM=99&96
NC[C@@H]1O[C@H](O[C@@H]2[C@@H](CO)OC(O[C@@H]3[C@@H](O)[C@H](N)C[C@H](N)[C@H]3OC3O[C@H](CN)[C@@H](O)[C@H](O)[C@H]3N)[C@@H]2O)[C@H](N)[C@@H](O)[C@@H]1O (stereo partly drawn)	i	·	·	total CFTR fold 25 µM=1.1;total CFTR viability 25 µM=94
CC(=O)NC1CCCCC1C (stereo not drawn)	i	1	102
O=S(=O)(CCSc1nnnn1C1CCCC1)c1ccc(Cl)cc1	i	0.86	84
CN(Cc1ccc(Br)s1)C(=O)C12CC3CC(CC(C3)C1)C2	i	1	102
CC(NS(=O)(=O)c1ccc(F)cc1)c1ccc(S(N)(=O)=O)cc1 (stereo not drawn)	i	1.1	110
CC(C)(C)n1nc(C(=O)O)cc1C1CC1	i	0.94	95
COc1cc(Br)c(S(=O)(=O)N2CCc3sccc3C2)cc1OC	i	1.1	82
COCCN1C(=O)C(=O)N(CN(C)Cc2nc3ccccc3s2)C1=O	i	1.1	100
CC(C)C(Nc1ccc2nnnn2n1)c1ccccc1 (stereo not drawn)	i	1.1	98
CC(c1nnc(-c2cccs2)o1)N1CCC(O)CC1 (stereo not drawn)	i	1	99
O=C(NC1CCC(O)CC1)NC(c1ccccc1)C1CC1 (stereo not drawn)	i	0.9	94
O=[N+]([O-])c1ccc(CN2CCCc3cc(F)cc(F)c32)cc1	i	0.94	74
Cn1c(SCc2ccc(Cl)c(Cl)c2)nc2cc(S(N)(=O)=O)ccc21	i	0.95	74
CN(CCCNS(=O)(=O)c1ccc2c(c1)CCC2)C(=O)OC(C)(C)C	i	0.83	96
CC(=O)c1c(C)[nH]c(C(=O)NC2CCC(C)CC2)c1C (stereo not drawn)	i	1	96
N#Cc1nc(-c2ccco2)oc1N1CCN(C2CCCc3ccccc32)CC1 (stereo not drawn)	i	0.97	94
O=C1CN2Cc3c(ccc(Cl)c3Cl)N=C2N1	i	·	·	total CFTR fold 25 µM=1&0.95;total CFTR viability 25 µM=103&81
O=C(Cn1c(=O)oc2ccc([N+](=O)[O-])cc21)C12CC3CC(CC(C3)C1)C2	i	0.87	81
CC(c1cc2ccccc2o1)N(C)Cc1nnc(-c2ccccc2)o1 (stereo not drawn)	i	0.84	81
CCOC(=O)c1c(NC(=O)C(C)N(C)C)sc2c1CCC(C)C2 (stereo not drawn)	i	1	93
O=S(=O)(c1ccc(S(=O)(=O)N2CCCCC2)cc1)C(F)F	i	1	98
OCCSc1nnc(-c2ccc3c(c2)OCO3)n1-c1ccccc1	i	0.98	91
Cc1cc(C)c(C)c(S(=O)(=O)N2CCC(c3nnc4ccccn34)CC2)c1C	i	1.1	96
CC(C)N1C(=O)c2ccc(C(=O)Nc3ccc(I)cc3)cc2S1(=O)=O	i	0.96	92
O=C(O)C[C@H](O)C[C@H](O)/C=C/c1c(C2CC2)nc2ccccc2c1-c1ccc(F)cc1	3.6	·	·	total CFTR fold 25 µM=1.6;total CFTR viability 25 µM=94
O=C1CCN(c2ncccc2[N+](=O)[O-])CCN1	i	0.99	102
CS(=O)(=O)c1nc2ccccc2n1Cc1cc(=O)n2ccccc2n1	i	0.82	109
O=C(OCc1cc(=O)n2ccccc2n1)c1ccc(O)cc1	i	0.92	80
FC(F)(F)C1CCCN(Cn2nc3c(Cl)cc(Cl)cn3c2=S)C1 (stereo not drawn)	i	1.2	89
CC(=O)O[C@]1(C(C)=O)CC[C@H]2[C@@H]3C[C@H](C)C4=CC(=O)CC[C@]4(C)[C@H]3CC[C@@]21C	i	·	·	total CFTR fold 25 µM=1;total CFTR viability 25 µM=95
CC(C)N(CCNC(=O)c1csc2c1CCCC2)C(C)C	i	1	94
CC1(C(=O)NC2CCSc3ccc(Cl)cc32)CC1(Cl)Cl (stereo not drawn)	i	0.91	92

The last six entries of the part above open the next one:
SMILES	total CFTR	total CFTR fold 10 ug/mL	total CFTR viability 10 ug/mL	others
CS(=O)(=O)c1nc2ccccc2n1Cc1cc(=O)n2ccccc2n1	i	0.82	109
O=C(OCc1cc(=O)n2ccccc2n1)c1ccc(O)cc1	i	0.92	80
FC(F)(F)C1CCCN(Cn2nc3c(Cl)cc(Cl)cn3c2=S)C1 (stereo not drawn)	i	1.2	89
CC(=O)O[C@]1(C(C)=O)CC[C@H]2[C@@H]3C[C@H](C)C4=CC(=O)CC[C@]4(C)[C@H]3CC[C@@]21C	i	·	·	total CFTR fold 25 µM=1;total CFTR viability 25 µM=95
CC(C)N(CCNC(=O)c1csc2c1CCCC2)C(C)C	i	1	94
CC1(C(=O)NC2CCSc3ccc(Cl)cc32)CC1(Cl)Cl (stereo not drawn)	i	0.91	92
COc1cc2nc(CSc3ccc4c(c3)OCCO4)[nH]c(=O)c2cc1OC	i	1	97
Cn1cc(S(=O)(=O)N2CCN(Cc3nc(N)nc(N)n3)CC2)cc1C(N)=O	i	0.98	91
CCOC(=O)c1[nH]c(C)c(C(=O)OC(C)C(=O)NC2CCCC2)c1C (stereo not drawn)	i	1	92
CN(C)c1nc(N)nc(COC(=O)C23CC4CC(CC(C4)C2)C3)n1	i	1.1	89
CCOC(=O)C1CCCN(Cc2cc(=O)oc3cc(C)c(C)cc23)C1 (stereo not drawn)	i	1	86
COc1ccc([N+](=O)[O-])cc1S(=O)(=O)Nc1cc2c(cc1Cl)OCCO2	i	1.1	88
CCOc1ccc(Br)cc1S(=O)(=O)N1CC2(C)CC1CC(C)(C)C2 (stereo not drawn)	i	1	98
Fc1ccc(-c2csc(/C=C/c3ccccc3Br)n2)cc1	i	1.1	99
Cc1ccc(S(=O)(=O)NC(=O)NN2CCCCCC2)cc1	i	·	·	total CFTR fold 25 µM=0.97&1;total CFTR viability 25 µM=103&90
CCC(CO)Nc1nc(CSc2ccc(Br)cc2)nc2sc3c(c12)CCCC3 (stereo not drawn)	i	1	74

The last 6 compounds of the part above come first, to join the parts:
SMILES	total CFTR	total CFTR fold 10 ug/mL	total CFTR viability 10 ug/mL	others
CCOC(=O)C1CCCN(Cc2cc(=O)oc3cc(C)c(C)cc23)C1 (stereo not drawn)	i	1	86
COc1ccc([N+](=O)[O-])cc1S(=O)(=O)Nc1cc2c(cc1Cl)OCCO2	i	1.1	88
CCOc1ccc(Br)cc1S(=O)(=O)N1CC2(C)CC1CC(C)(C)C2 (stereo not drawn)	i	1	98
Fc1ccc(-c2csc(/C=C/c3ccccc3Br)n2)cc1	i	1.1	99
Cc1ccc(S(=O)(=O)NC(=O)NN2CCCCCC2)cc1	i	·	·	total CFTR fold 25 µM=0.97&1;total CFTR viability 25 µM=103&90
CCC(CO)Nc1nc(CSc2ccc(Br)cc2)nc2sc3c(c12)CCCC3 (stereo not drawn)	i	1	74
CCN1CC(CCN2CCOCC2)C(C(c2ccccc2)c2ccccc2)C1=O (stereo not drawn)	i	·	·	total CFTR fold 25 µM=1;total CFTR viability 25 µM=106
N#CCCN1CCN(C(=O)C23CC4CC(CC(C4)C2)C3)CC1	i	1.1	86
CN(Cc1cc(F)cc2c1OCOC2)S(=O)(=O)c1ccc(Cl)cc1C(F)(F)F	i	1.1	79
CCOC(=O)C1=C(C)N(C2CC2)C(=O)NC1c1ccc(F)cc1F (stereo not drawn)	i	1	82
CCOCCCNc1nnc(SC(C(=O)NC(N)=O)C(C)C)s1 (stereo not drawn)	i	0.95	97
COc1cccc(C2N=C(N)Nc3nc4cc5c(cc4n32)OCCCO5)c1OC (stereo not drawn)	i	1.1	109
O=c1cc(CSc2nnc(-c3ccc(OC(F)F)cc3)o2)c2cc3c(cc2o1)CCC3	i	1.1	115
O=C1Nc2cc(O)ccc2C1=O	i	1.1	104
CCOCCCn1c(SCCN2C(=O)c3ccccc3C2=O)nc2ccccc2c1=O	i	1	94
CCOc1ccc(N)cc1CO	i	1.1	102
CC1(C)S[C@@H]2[C@H](NC(=O)[C@H](N)c3ccccc3)C(=O)N2[C@H]1C(=O)O	i	·	·	total CFTR fold 25 µM=1.1&1.1;total CFTR viability 25 µM=105&101
O=C(Nc1ccc(Br)c(C(F)(F)F)c1)C1=COCCO1	i	0.89	89
CS(=O)(=O)N1CCC(NS(=O)(=O)c2ccc(Cl)cc2C(F)(F)F)CC1	i	0.94	104
CCCCNc1nnc(SC2CC(C)OC2=O)s1 (stereo not drawn)	i	1	87
O=c1cc(CSc2ncnc3sc4c(c23)CCC4)nc2scc(-c3ccccc3)n12	i	1	97
CN(Cc1ccccc1Cl)Cn1ncn(-c2cccc(Cl)c2)c1=S	i	1	105
CCN(CC)C(=O)N1CCN(CN2C(=O)CN(c3ccccc3)C2=O)CC1	i	1	100
CC(CCc1ccco1)NC(=O)N1CCN(Cc2nc3scc(-c4cccs4)c3c(=O)[nH]2)CC1 (stereo not drawn)	i	0.93	92
Cc1cc(NC(C)CCc2ccccc2)n2ncnc2n1 (stereo not drawn)	i	0.94	82
COCCOC(=O)c1c(C)[nH]c(C(=O)O)c1C	i	1.1	98
COC(=O)c1ccoc1COC(=O)c1csc(-c2cccs2)n1	i	1.4	89
CS(=O)(=O)N(CCCN)Cc1cccnc1	i	1.1	96
Clc1cc(CSc2nnc(Cc3ccccc3)o2)cc2c1OCCO2	i	0.96	89
O=C(CCN1C(=O)NC2(CCCCC2)C1=O)NC1CCCCCC1	i	1	106
